TDP1 block: inhibitors of human tyrosyl-DNA phosphodiesterase TDP1; Q9NUW8; 350,000 tested, 0.28% active; recombinant TDP1, AlphaScreen DNA substrate cleavage; Potency, µM (top dose mostly 130 µM), without a hit: at the highest dose activity change, negative = inhibition, usual class: inhibitors; also: nearly all actives have a fitted effect of over 40% in size
Target sequence (Q9NUW8 whole entry, looked up): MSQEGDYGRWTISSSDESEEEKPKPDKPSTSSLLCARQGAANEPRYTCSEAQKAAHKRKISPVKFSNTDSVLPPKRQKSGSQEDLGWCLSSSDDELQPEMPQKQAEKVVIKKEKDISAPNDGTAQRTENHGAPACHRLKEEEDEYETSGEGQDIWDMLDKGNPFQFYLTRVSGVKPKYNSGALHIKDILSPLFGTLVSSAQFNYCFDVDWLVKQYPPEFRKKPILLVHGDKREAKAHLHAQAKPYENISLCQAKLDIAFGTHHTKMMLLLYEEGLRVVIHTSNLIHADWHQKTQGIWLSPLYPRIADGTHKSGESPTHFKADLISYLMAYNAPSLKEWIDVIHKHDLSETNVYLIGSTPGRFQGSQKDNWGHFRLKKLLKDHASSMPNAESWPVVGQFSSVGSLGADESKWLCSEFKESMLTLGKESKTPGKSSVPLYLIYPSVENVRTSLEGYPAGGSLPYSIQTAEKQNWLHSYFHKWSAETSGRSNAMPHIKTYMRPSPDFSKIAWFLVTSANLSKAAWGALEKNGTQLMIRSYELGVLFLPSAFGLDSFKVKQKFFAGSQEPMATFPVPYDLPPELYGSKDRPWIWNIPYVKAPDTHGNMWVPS
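Signal: AlphaScreen proximity between streptavidin donor and anti-FITC acceptor beads on intact substrate. Reaction: Tdp1 1 nM, substrate 15 nM final, 5 min RT after 15 min compound preincubation.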
N370S GC: inhibitors or activators of N370S glucocerebrosidase for Gaucher disease | Potency, µM (series often up to 59.4 µM), for the others: at the highest dose activity change, negative = inhibition, most hits filed as inhibitors | P04062 | N370S GC spleen homogenate, 4MU-glucoside fluorescence | 330,000 tested, 0.092% active;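 also: 0% = full enzyme activity and -100% = no enzyme basal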
An asterisk follows results filed as active; ? = inconclusive; nt = not tested or not shown; & = joins results of further samples; [ ] = dose if it differs, or a comment. Calls follow the shape of the dose curve; as a rule, active = well fitted curve in the direction sought with a large enough effect; inconclusive = small, poorly fitted or top-dose-only effect, or another doubt; inactive = no such curve, though single readings can be large; an effect the other way counts as inactive or inconclusive. Unless noted, % is scaled to controls: 0 for no effect and ±100 for the full control effect; potency is read from the fitted curve at half-maximal effect. These rows are one share of the data, and most or all hits are left out here.

Start of the data: the first 19 records (preview)
No.	Molecule	N370S GC	TDP1 block
1	COc1ccc(/C=C/C(=O)OCC(=O)c2ccc[nH]2)cc1	nt	0.6%
2	Cc1[nH]ccc(=O)c1OCc1ccc(Cl)cc1	-1.9%	0.0%
3	CN1CCN(c2ccc([N+](=O)[O-])cc2C(=O)c2ccc(Br)cc2)CC1	-4.6%	2.0%
4	O=C(CCc1c[nH]c2ccccc12)N1CCN(c2ccc(O)cc2)CC1	-24.1%	6.0%
5	CCN1CCN(C(c2cccs2)C(C)NC(=O)c2ccco2)CC1 (stereo unspecified)	-3.4%	2.1%
6	Cc1ccc(C(=O)n2cnc3ccccc32)cc1C	10.0%	nt
7	CCOC(=O)c1c(C)n(-c2ccccc2)c2ccc(O)c(CN(C)C)c12	-20.5%	2.7%
8	CCc1cc2c(C)cc(=O)oc2cc1OC(=O)C1CCCN1C(=O)OC(C)(C)C (stereo unspecified)	?	-4.8%
9	COc1ccccc1CNC(=O)COc1ccc2c(c1)CCC2	?	-6.1%
10	CCc1nnc2c3cnn(-c4ccccc4)c3ncn12	3.8%	6.8%
11	COc1cccc(C2=NOC(C(=O)NCc3cccnc3)C2)c1 (stereo unspecified)	4.5%	nt
12	COc1ccc(-n2c(Cn3c(=O)sc4ccccc43)nnc2SCC(=O)N2CCOCC2)cc1	-4.2%	4.9%
13	COC(=O)c1ccc2c(=O)n(CCN3CCOCC3)c(SCC(=O)Nc3ccc(C)cc3)nc2c1	5.0%	3.2%
14	OCCC1CN(Cc2cnc(-c3ccc(Cl)cc3)nc2)CCN1C1CCCCC1 (stereo unspecified)	-11.8%	0.0%
15	COc1ccc(-c2nnc(NC(=O)c3cc(C)on3)s2)cc1	-2.7%	2.6%
16	O=C(NCCCNC(=O)c1cncc(O)c1)c1cncc(O)c1	-4.8%	2.6%
17	CCC(C)(C)NC(=O)C(c1cccn1C)N(C(=O)Cn1nnc2ccccc21)c1ccc(OC)cc1OC (stereo unspecified)	-11.6%	5.0%
18	Cc1c(C)c2ccc(O[C@@H]3O[C@H](CO)[C@H](O)[C@H](O)[C@H]3O)c(C)c2oc1=O	?	nt
19	Cc1cc([N+](=O)[O-])nn1CCCC(=O)Nc1cc(Oc2ccccc2)cc([N+](=O)[O-])c1	9.6%	2.6%

The whole of this part, repeating the preview:
No.	Molecule	N370S GC	TDP1 block
1	COc1ccc(/C=C/C(=O)OCC(=O)c2ccc[nH]2)cc1	nt	0.6%
2	Cc1[nH]ccc(=O)c1OCc1ccc(Cl)cc1	-1.9%	0.0%
3	CN1CCN(c2ccc([N+](=O)[O-])cc2C(=O)c2ccc(Br)cc2)CC1	-4.6%	2.0%
4	O=C(CCc1c[nH]c2ccccc12)N1CCN(c2ccc(O)cc2)CC1	-24.1%	6.0%
5	CCN1CCN(C(c2cccs2)C(C)NC(=O)c2ccco2)CC1 (stereo unspecified)	-3.4%	2.1%
6	Cc1ccc(C(=O)n2cnc3ccccc32)cc1C	10.0%	nt
7	CCOC(=O)c1c(C)n(-c2ccccc2)c2ccc(O)c(CN(C)C)c12	-20.5%	2.7%
8	CCc1cc2c(C)cc(=O)oc2cc1OC(=O)C1CCCN1C(=O)OC(C)(C)C (stereo unspecified)	?	-4.8%
9	COc1ccccc1CNC(=O)COc1ccc2c(c1)CCC2	?	-6.1%
10	CCc1nnc2c3cnn(-c4ccccc4)c3ncn12	3.8%	6.8%
11	COc1cccc(C2=NOC(C(=O)NCc3cccnc3)C2)c1 (stereo unspecified)	4.5%	nt
12	COc1ccc(-n2c(Cn3c(=O)sc4ccccc43)nnc2SCC(=O)N2CCOCC2)cc1	-4.2%	4.9%
13	COC(=O)c1ccc2c(=O)n(CCN3CCOCC3)c(SCC(=O)Nc3ccc(C)cc3)nc2c1	5.0%	3.2%
14	OCCC1CN(Cc2cnc(-c3ccc(Cl)cc3)nc2)CCN1C1CCCCC1 (stereo unspecified)	-11.8%	0.0%
15	COc1ccc(-c2nnc(NC(=O)c3cc(C)on3)s2)cc1	-2.7%	2.6%
16	O=C(NCCCNC(=O)c1cncc(O)c1)c1cncc(O)c1	-4.8%	2.6%
17	CCC(C)(C)NC(=O)C(c1cccn1C)N(C(=O)Cn1nnc2ccccc21)c1ccc(OC)cc1OC (stereo unspecified)	-11.6%	5.0%
18	Cc1c(C)c2ccc(O[C@@H]3O[C@H](CO)[C@H](O)[C@H](O)[C@H]3O)c(C)c2oc1=O	?	nt
19	Cc1cc([N+](=O)[O-])nn1CCCC(=O)Nc1cc(Oc2ccccc2)cc([N+](=O)[O-])c1	9.6%	2.6%
20	CCCOC(=O)c1c(NC(=O)/C=C/c2cnn(C)c2C)sc(C(=O)OCC)c1C	4.6%	1.1%
21	CC1=NN(c2ccc(Cl)cc2)C(=O)C1	-5.2%	6.5%
22	S=C(NCc1ccccc1)NNc1ccccc1	6.6%	10.8%
23	COc1ccc(-c2nn(-c3ccccc3C)cc2CNCc2cccnc2)cc1F	4.3%	-7.7%
24	Cc1ccc(C(=O)NNC(=O)C2CCN(S(=O)(=O)c3ccc(Cl)cc3)CC2)cc1	6.3%	5.4%
25	OC(c1ccccc1)c1nc2ccccc2[nH]1 (stereo unspecified)	1.0%	nt
26	COc1ccc(NC(=O)CSc2nnc3ccc(-c4cccnc4)nn23)c(OC)c1	-3.5%	nt
27	COc1ccc2cc(OC)c(C(=O)N3CCOCC3)cc2c1	-6.2%	-1.2%
28	Cc1cccc(N(CC(=O)NCc2ccc3c(c2)OCO3)C(=O)CCC(=O)Nc2ccccn2)c1	-19.0%	6.0%
29	COc1ccc(NS(=O)(=O)c2cccc(C(=O)O)c2)cc1S(=O)(=O)N1CCOCC1	nt	-0.4%
30	O=C(C1CCCN1S(=O)(=O)c1cccc2nsnc12)N1CCN(c2ccc(F)cc2)CC1 (stereo unspecified)	-9.4%	2.9%
31	O=C(CS(=O)(=O)c1c[nH]c2ccccc12)NC1CCCCC1	-0.1%	4.3%
32	Cc1cc(Cl)c(OCCn2ccnc2)c(Br)c1	-11.6%	2.8%
33	O=C(CSc1nc(-c2ccccc2)cs1)Nc1ccccc1[N+](=O)[O-]	?	7.9%
34	Cn1c(=O)oc2cc(S(=O)(=O)Nc3ccccc3O)ccc21	-2.8%	-6.3%
35	Cn1c2ccccc2c(=O)c2ccc(-c3ccc4c(c3)OCO4)cc21	?	nt
36	CC(C)C(C(=O)N1CCOCC1)N1C(=O)c2ccccc2C1=O (stereo unspecified)	10.3%	-4.7%
37	O=S(=O)(NCc1ccco1)c1ccc(Cl)nc1	10.3%	0.0%
38	Cc1sc(NC(=O)CSc2nnc3scc(-c4ccccc4)n23)c(C#N)c1C	1.5%	-7.1%
39	COc1cc(CNCc2cccnc2)ccc1OCc1ccccc1	-3.1%	5.1%
40	CCOc1ncccc1C(=O)N1CCN(C(=O)c2ccccc2)CC1	-7.3%	-1.6%
41	COc1ccccc1NS(=O)(=O)c1ccc(NC(=O)c2[nH]nc(OC)c2[N+](=O)[O-])cc1	-12.8%	4.6%
42	CCOCCCNc1nc2nc3ccc(C)cn3c(=O)c2cc1C(=O)NCC1CCCO1 (stereo unspecified)	22.5%	-4.8%
43	COc1ccc2c(c1)-c1c(sn(-c3ccccc3)c1=S)C(C)(C)N2	-18.1%	13.0%
44	O=C(NCc1ccc(F)cc1)c1cccc(S(=O)(=O)N2CCOCC2)c1	nt	1.9%
45	CCOC(=O)c1c(NC(=O)c2nc3n(n2)C(C(F)F)CC(C)N3)sc2c1CCCC2 (stereo unspecified)	8.8%[2.35 µM]	2.0%
46	COc1ccc(OCCSc2nnc3c(Cl)cc(Cl)cn23)cc1	-11.5%	3.0%
47	C=CCNC(=O)c1ccc(N(Cc2ccc(Cl)cc2)S(C)(=O)=O)cc1	0.8%	nt
48	Cc1cc(C)nc(SCc2ccc(Cl)cc2)n1	0.3%	nt
49	CCOc1nc(NC(=O)NS(=O)(=O)c2ccccc2F)nc(-c2ccccc2)n1	-19.3%	3.5%
50	COc1ccc(CNC(=O)CN(Cc2ccccc2OC)C(=O)c2csnn2)cc1	0.1%	10.8%
51	Cc1cc(N2CCN(C)CC2)nc2ccc(NC(=O)c3ccccc3F)cc12	-24.3%	4.9%&8.8%
52	O=C(Nc1cccc(S(=O)(=O)C(F)F)c1)c1ccc(S(=O)(=O)N2CCCCC2)cc1	-2.1%	-11.0%
53	Cc1ccc(CC(=O)Nc2ccc(S(=O)(=O)Nc3nccc(C)n3)cc2)cc1	0.2%	nt
54	Cc1ccc(NC(=O)c2cc(S(=O)(=O)N3CCOCC3)cn2C)c(C)c1	-4.2%	nt
55	Cn1cc(CCC(=O)NCc2ccc(Cl)cc2)c2ccccc21	-4.6%	5.1%
56	O=C(COc1ccccc1Cl)N1CCN(c2ccccn2)CC1	-1.6%	nt
57	COc1ccc(/C=C/c2ccncc2)c2ccccc12	6.5%	5.1%
58	CC(=O)c1ccc(NC(=O)CSc2nnc(-c3ccoc3C)n2Cc2ccccc2)cc1	1.8%	4.5%
59	Fc1ccc(Sc2ccccc2CNC2=NCCN2)cc1	-4.2%	5.3%
60	CCC(NS(=O)(=O)c1c(C)[nH]c(=O)[nH]c1=O)C12CC3CC(CC(C3)C1)C2 (stereo unspecified)	-9.4%	4.3%

Ordered by value in N370S GC (falling): some entries from above.
No.	Molecule	N370S GC	TDP1 block
58	CC(=O)c1ccc(NC(=O)CSc2nnc(-c3ccoc3C)n2Cc2ccccc2)cc1	1.8%	4.5%
50	COc1ccc(CNC(=O)CN(Cc2ccccc2OC)C(=O)c2csnn2)cc1	0.1%	10.8%
56	O=C(COc1ccccc1Cl)N1CCN(c2ccccn2)CC1	-1.6%	nt

(list continues)
No.	Molecule	N370S GC	TDP1 block
61	O=C(Cn1cccn1)c1ccccc1	-1.5%	-5.9%
62	CCN(CC)c1ccc(NC(=O)COC(=O)/C=C/c2nc3ccccc3s2)cc1	11.3%	0.0%
63	CC(=O)Nc1ccc(NC(=O)/C(=C/c2ccco2)NC(=O)c2ccccc2)cc1	-9.4%	-2.5%
64	O=C(N/N=C\c1ccc(-c2ccccc2[N+](=O)[O-])o1)C1COc2cc3ccccc3cc2O1 (stereo unspecified)	-0.2%	2.1%
65	Cc1cc(C(=O)NN=C2CCCCCC2)c(C)o1	-10.1%	nt
66	Cc1ccccc1Nc1nc(Cl)c(C=O)s1	2.6%	2.6%
67	CCN(Cc1ccncc1)Cc1ccc(Br)cc1	-9.3%	nt
68	Cc1cc(SCC(=O)N2CCCC2=O)nc2ccccc12	nt	-0.9%
69	Cn1c2ccccc2c2cnn(CC(=O)Nc3ccc(Cl)cc3)c(=O)c21	-9.9%	nt
70	CNc1nc(N/N=C/c2ccc([N+](=O)[O-])cc2)nc(Nc2ccccc2)n1	25.5%	-2.6%
71	Cc1ccc(S(=O)(=O)/N=C2\C(=O)c3ccccc3C([O-])=C2n2cc[n+](CCC(C)C)c2)cc1	5.0%	6.4%
72	O=C(CSc1nnc2ccc(-c3ccc(F)cc3)nn12)N1CCOCC1	-0.7%	2.3%
73	O=S1(=O)[C@H]2C[C@@H]3C=C[C@@]2(CN1Cc1cccc(C(F)(F)F)c1)O3	-15.2%	nt
74	COc1ccc(CNC(=O)CSc2nnnn2-c2ccc(O)cc2)cc1	2.9%	1.9%
75	COc1ccc(CNC(=O)C2CCNCC2)cc1	2.1%	-2.2%
76	CC(=O)C(Sc1nnnn1-c1ccc(O)cc1)c1ccccc1 (stereo unspecified)	-17.3%	nt
77	Oc1ccc(-c2cccc(-c3ccc(O)cc3)n2)cc1	-10.0%	-2.1%
78	CCN(CCCNC(=O)CNC(=O)Cn1cnc2ccccc2c1=O)c1ccccc1	2.6%	3.3%
79	Cc1ccc(S(=O)(=O)N2CCC(=O)N(C(COCc3cccc(Cl)c3)C(C)C)CC2)cc1 (stereo unspecified)	18.2%	2.7%
80	O=C(Nc1cccnc1)c1ccc(Oc2ccccc2)cc1	-3.5%	0.0%
81	CCOC(=O)Cc1csc(NS(=O)(=O)c2ccc3c4c(cccc24)C(=O)N3CC)n1	6.6%	1.9%
82	Cn1c(SCC(=O)Nc2nc3ccccc3s2)ncc(C(=O)Nc2ccc(F)cc2)c1=O	nt	0.0%
83	COc1ccc(C(=O)C[n+]2cccc(C)c2C)cc1[N+](=O)[O-]	10.0%	8.3%
84	CCOC(=O)N1CCN(C(=O)CSc2nc(=O)n3ccccc3n2)CC1	-13.2%	nt
85	O=C(Nc1ccccc1OC(F)F)C1CCCN1C(=O)c1cccs1 (stereo unspecified)	3.9%	-2.2%
86	COc1ccc(-c2csc3ncnc(N4CCN(c5cccc(OC)c5)CC4)c23)cc1	0.1%	5.9%
87	COCc1cc(C(C)=O)ccc1OC	-12.3%	6.8%
88	CCC1(C)Cc2c(sc3nnn(Cc4ccccc4Cl)c(=O)c23)CO1 (stereo unspecified)	4.1%	0.0%
89	COc1ccc(/C(O)=C2/C(=O)C(=O)N(CCN(C)C)C2c2cccnc2)cc1OC (stereo unspecified)	1.4%	7.0%
90	CC1(C)CC(=O)C2=C(C1)N1CCCCC1CC2=O (stereo unspecified)	9.8%	4.8%
91	CCc1ccc(NC(=O)CSc2nnnn2C)cc1	2.4%	1.3%
92	O=[N+]([O-])c1ccccc1Oc1ccc(Cl)c2cccnc12	8.2%	6.3%
93	COc1cc(CCC(=O)OCC(=O)Nc2cccc(S(N)(=O)=O)c2)cc(OC)c1OC	11.0%	4.5%

Compound activity as filed in PubChem.
